# Bioassay records (PubChem)
# SARS PLP yeast = qHTS of Yeast-based Assay for SARS-CoV PLP; Potency, µM (series often up to 32.9 µM), without a hit: at the top dose activity, positive = growth rescue; S. cerevisiae expressing SARS-CoV PLpro, growth rescue; control for the full effect not named in the record; 0.19% of 330,000 active; AID 485353, 2010; active means well fitted rising curve with a large enough effect; inconclusive means small, poorly fitted or top-dose-only effect; inactive means no such curve, though single readings can be large or run the other way; note: 0% is about no effect; nearly all actives have a fitted effect of over 55% in size; growth read by luminescence after 48 h
# RE007 growth inh = qHTS Assay for Inhibitors of the HIV-1 protein Vpr. Potency, µM (doses to about 92.2 µM), without a hit: at the highest dose activity change, negative = less growth. 0.21% of 360,000 active. S. pombe RE007 Vpr strain, BacTiter-Glo ATP luminescence, 24 h; control for the full effect not named in the record; active = well fitted falling curve with a large enough effect; inconclusive = small, poorly fitted or top-dose-only effect; inactive = no such curve, though single readings can be large or run the other way;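 note: % is set by controls: 0 for no effect and ±100 for the full control effect; nearly all actives have a fitted effect of over 50% in size; the assay follows cell death caused by Vpr and the record does not say whether a fall means rescue or toxicity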
#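 Fission yeast RE007 carrying one integrated HIV-1 vpr copy, seeded at OD 0.01 in PMG+AL medium with 23 nL pinned compound. Grown 24 h at 30 degrees; viability read by BacTiter-Glo luminescence after 5 min.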
# NS1 inh = qHTS Assay for Inhibitors of Influenza NS1 Protein Function; Potency, µM (highest dose often 46.1 µM), without a hit: at the highest dose activity, positive = more growth; S. cerevisiae slowed by influenza A NS1, growth recovery by OD600; 0.4% of 270,000 active; AID 2326, 2010; active means well fitted rising curve with a large enough effect; inconclusive means small, poorly fitted or top-dose-only effect; inactive means no such curve, though single readings can be large or run the other way; note: nearly all actives have a fitted effect of over 50% in size
#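 Compounds were scored for reversing the slow growth caused by influenza A NS1 in S. cerevisiae, measured by optical density at 600 nm. Assay medium contained 2% galactose at pH 6.0; NS1-free yeast of the same strain were the positive control.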
# Marburg entry inh = qHTS for inhibitors of binding or entry into cells for Marburg Virus; AID 540276, 2011; Marburg virus pseudotyped entry inhibition, cell reporter; control for the full effect not named in the record; about a third of the inactives were read at about 46 µM; Potency, µM (titrated, usually from 37.8 µM), without a hit: top-dose activity change, negative = inhibition, usual class: inhibitors; 1.8% of 300,000 active; active = well fitted inhibition curve with a large enough effect; inconclusive = small, poorly fitted or top-dose-only effect, or effect the other way; inactive = flat fitted curve, though single readings scatter; tested in HEK293 cells; about a fifth of its hits are not listed in these tables; note: % is set by controls: 0 for no effect and ±100 for the full control effect; luciferase read-out
# Cruzain noTriton = qHTS Assay for Promiscuous and Specific Inhibitors of Cruzain (without detergent) | purified cruzain, Z-FR-AMC fluorescence, no detergent | 2.3% of 200,000 active | Potency, µM, for inactives: max response, negative = inhibition, most hits filed as inhibitors | AID 1476, 2009 | Cruzipain (Trypanosoma cruzi), P25779;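 note: plate controls were enzyme without inhibitor for no effect and buffer without enzyme for full effect; nearly all actives have a fitted effect of over 40% in size; top concentration of the series not given in the record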
# Target sequence (P25779 123-467 limits assumed): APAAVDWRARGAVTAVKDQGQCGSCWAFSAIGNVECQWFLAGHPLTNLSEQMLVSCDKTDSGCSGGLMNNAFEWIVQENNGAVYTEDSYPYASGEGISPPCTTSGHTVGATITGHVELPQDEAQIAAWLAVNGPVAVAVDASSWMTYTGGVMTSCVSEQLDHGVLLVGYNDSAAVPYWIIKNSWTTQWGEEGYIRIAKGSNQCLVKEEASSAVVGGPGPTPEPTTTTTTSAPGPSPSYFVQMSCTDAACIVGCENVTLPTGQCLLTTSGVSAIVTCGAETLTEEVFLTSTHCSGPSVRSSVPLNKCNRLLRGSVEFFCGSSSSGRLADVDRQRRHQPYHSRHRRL
#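 Detergent-free condition (0.00005% Triton X-100) in acetate buffer pH 5.5 with DTT. 1.5 nM enzyme and compound were pre-mixed 15 min, then 2 uM Z-FR-AMC substrate added; reaction progress from fluorescence change between first and third reads (60 s).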
# LASV entry inh = qHTS for Inhibitors of binding or entry into cells for Lassa Virus | Lassa virus pseudotype entry inhibition, cell reporter; control for the full effect not named in the record | Potency, µM (doses to about 37.9 µM), for inactives: at the highest dose activity change, negative = inhibition, most hits filed as inhibitors | 1.2% of 300,000 active; active means well fitted inhibition curve with a large enough effect; inconclusive means small, poorly fitted or top-dose-only effect, or effect the other way; inactive means flat fitted curve, though single readings scatter; tested in HEK293 cells; note: % is set by controls: 0 for no effect and ±100 for the full control effect; nearly all actives have a fitted effect of over 50% in size; luciferase read-out
# Cruzain inh Det = qHTS Assay for Promiscuous and Specific Inhibitors of Cruzain (with detergent); purified cruzain, Z-FR-AMC fluorescence, 0.01% Triton; 0.43% of 200,000 active; Potency, µM, without a hit: max response, negative = inhibition, usual class: inhibitors;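 note: plate controls were neutral wells for no effect and buffer without enzyme for full effect; nearly all actives have a fitted effect of over 40% in size; top concentration of the series not given in the record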
#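 Compounds were screened in titration against cruzain (1.5 nM) with 0.01% Triton X-100 to counter colloidal aggregation. Activity was the AMC fluorescence increase over 60 s after adding 2 uM Z-FR-AMC at pH 5.5.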
# StopGo reporter = High Throughput Screening for Foot and Mouth Disease Virus Antivirals | 1.2% of 410,000 active | Potency, µM (titrated, usually from 57.9 µM), for inactives: top-dose signal change, negative = less light | human cells with a luciferase reporter of 2A StopGo recoding; control for the full effect not named in the record | AID 1159524, 2015; active = well fitted falling curve with a large enough effect; inconclusive = small, poorly fitted or top-dose-only effect; inactive = no such curve, though single readings can be large or run the other way; tested in HEK293T cells; note: % is set by controls: 0 for no effect and ±100 for the full control effect; nearly all actives have a fitted effect of over 45% in size; luciferase light after 4 h
# * marks the source's active call; other numbers are inactive results; ? = inconclusive; nt = no result given; & = joins results of further samples; [ ] = remark or other dose. Unless noted, calls come from the whole dose curve; as a rule, active = well fitted curve in the direction sought with a large enough effect; inconclusive = small, poorly fitted or top-dose-only effect, or another doubt; inactive = no such curve, though single readings can be large; an effect the other way counts as inactive or inconclusive. Potency is the fitted concentration of half-maximal effect.
SMILES,SARS PLP yeast,RE007 growth inh,NS1 inh,Marburg entry inh,Cruzain noTriton,LASV entry inh,Cruzain inh Det,StopGo reporter
CC1(C)CC(N2CCC(=O)N(C3CC(C)(C)NC(C)(C)C3)C2)CC(C)(C)N1,?,9.1%,7.9%,0.1%,1.9%,13.5%,7.3%,-1.3%
Cc1nn(C)c2c1c(-c1ccccc1)cc(=O)n2CC(=O)NC(C)(C)C,nt,nt,nt,nt,?,?,-3.6%,-22.6%
COc1ccc(NC(=O)c2sc3nc[nH]c(=O)c3c2C)cc1,nt,nt,nt,nt,1.5%,5.6%[46.1 µM],-3.7%,13.3%
COc1ccc(C(C(=O)NC(C)(C)C)N(Cc2ccccc2)C(=O)CCC(=O)Nc2cc(C)on2)cc1 (configuration not stated),-1.2%,-3.2%,3.6%,nt,nt,nt,nt,10.7%
CSc1ccccc1OCc1cc(C(=O)NC(C)CCn2cccn2)no1 (configuration not stated),0.2%,-3.7%,-11.8%,-2.6%,nt,?,nt,1.0%
Cc1cc(COc2ccccc2)oc1C(=O)O,-9.0%,-5.8%,-9.1%,nt,nt,nt,nt,?
COc1cccc(CNS(=O)(=O)c2c(C)nc3sccn3c2=O)c1,-1.3%,10.0%,12.2%,nt,nt,nt,nt,-16.9%
CC(=O)n1cc([C@H]2C=C(C(=O)N3CCN(Cc4ccccc4)CC3)O[C@@H](OCCCCO)C2)c2ccccc21,-1.5%,-26.0%,-5.6%,nt,nt,nt,nt,0.0%
COc1cccc(NC(=O)NCCCCc2ccccc2)c1,-7.2%,-11.1%,-106.9%,nt,nt,nt,nt,52.4%[activator]
O=C(Nc1nnc(-c2ccco2)o1)c1ccc(Cl)cc1,-4.0%,-4.2%,nt,-3.6%[46.1 µM],nt,-14.8%,nt,42.8%[activator]
COc1cc(/C=N/NC(=O)C(=O)NCc2cccnc2)cc(OC)c1OC,3.5%,-2.7%,11.9%,-14.6%,-4.4%,-5.8%,-4.4%,-5.4%
Nc1ccc(-n2nc(C(F)(F)F)cc2C(F)(F)F)cc1,0.7%,1.8%,-0.3%,16.0%,nt,-3.0%,nt,-7.8%
CCOc1ccc(S(=O)(=O)NCCC(=O)NCC(c2cccs2)N(C)C)cc1 (configuration not stated),-2.5%,-1.9%,nt,?,nt,?,nt,59.0%[activator]
COCc1nnc(NC(=O)c2ccccc2[N+](=O)[O-])s1,-4.0%,30.2%,4.6%,9.4%,9.8%,1.9%,0.2%,-0.1%
CC(C)OCC(O)CN1CCN(CCN2C(=O)c3cccc4cccc(c34)C2=O)CC1 (configuration not stated),-7.3%,-6.1%,-3.8%,nt,nt,nt,nt,-17.7%
O=C(Cn1cnc2ccccc2c1=O)OCC(=O)c1ccc2c(c1)OCCO2,6.4%,21.9%,-9.8%,4.9%,-20.1%,7.9%,-6.2%,22.7%
CC(C)(C)NC(=O)COc1coc(CN2CCN(Cc3ccccc3)CC2)cc1=O,-5.1%,-1.3%,-14.3%,5.9%[46.1 µM],nt,7.1%[46.1 µM],nt,-13.1%
COC(=O)c1cccc(NS(=O)(=O)c2ccc(NC(C)=O)cc2)c1C,-4.5%,-8.2%[3.69 µM],-0.3%,0.7%,3.0%,10.3%,6.2%,-18.9%
CCOC(=O)c1nn(-c2ccc(F)cc2)c2nc(CC(C)C)c(C#N)c(=O)n12,1.0%,6.7%,11.7%,13.4%,-2.6%,-10.8%,-8.4%,-13.0%
Cc1cc(C)c(C(=O)NCC2CCCO2)c(C)c1C(=O)NCC1CCCO1 (configuration not stated),-0.9%,9.7%,-1.2%,nt,nt,nt,nt,-5.7%
C=CCSc1nc(C)c(CCCC)c(=O)[nH]1,-2.8%,-11.3%,1.0%,28.2%[46.1 µM],nt,1.7%,nt,-1.9%
O=C1C2CC=C(Cl)CC2C(=O)N1CC1OCCc2ccccc21 (configuration not stated),-3.1%,-17.2%,-6.2%,-1.0%[46.1 µM],-7.4%,-0.6%,-0.7%,-5.7%
O=C(Nc1nc2ccccc2[nH]1)c1cccc(F)c1,-9.6%,-19.1%,-8.4%,?,nt,?,nt,-15.4%
COc1cccc(NC(=O)CNC(=O)c2cccs2)c1,1.4%,0.6%,-3.2%,-2.5%,-4.1%,-1.1%,4.2%,60.0%[activator]
N=c1c(C(=O)NCC2CCCO2)cc2c(=O)n3ccccc3nc2n1Cc1ccc(F)cc1 (configuration not stated),-6.5%,5.2%,-10.0%,nt,nt,nt,nt,15.7%
O=C(O)C1CCC(Cn2c(SCc3cc(=O)n4cc(Cl)ccc4n3)nc3ccsc3c2=O)CC1 (configuration not stated),0.3%,0.4%,nt,-1.5%,nt,-0.5%,nt,-14.6%
COc1cccc(C(=O)Nc2ccc(C(=O)O)cc2)c1,-0.1%,-0.9%,0.8%,-11.0%,-6.9%,?,-0.2%,31.0%[activator]
Cc1ccc(CNC(=O)COC(=O)CSc2cc(C)c(Br)cc2C)cc1,20.8%,6.5%,-2.8%,?,2.7%,5.7%,-8.4%,-13.3%
CCCc1cc(=O)[nH]c(SCC(=O)N(C)CC(=O)Nc2ccccc2CC)n1,-7.1%,15.6%,-0.3%,0.9%,-9.4%,1.7%,7.3%,-1.5%
COC(=O)/C=C(\C)NC(=O)c1ccc(F)cc1,13.9%,2.5%,8.2%,0.9%,-7.5%,20.8%,4.1%,21.1%
CCOc1ccc(NC(=O)CC2C(=O)N(c3ccccc3)C(=O)N2Cc2ccccn2)cc1 (configuration not stated),-4.7%,9.3%,-8.4%,-12.2%,5.3%,1.9%,2.9%,12.6%
Cc1cc(C)n2nc(N)nc2n1,nt,12.4%,nt,-1.4%,nt,16.7%,nt,-15.6%
COc1cccc(C2C([N+](=O)[O-])=C(N)Oc3c2c(=O)oc2ccccc32)c1 (configuration not stated),-10.1%,-3.1%,7.8%,?,-11.6%,-14.4%,-19.1%,6.5%
Cc1cnnn1-c1ccc(C(=O)CCl)cc1,?,19.9%,-14.8%,5.9%,-8.7%,-0.9%,1.4%,?
O=C(NCc1ccncc1)/C(=C/c1cccc([N+](=O)[O-])c1)NC(=O)c1ccccc1,-2.3%,-9.7%,2.3%,nt,nt,nt,nt,5.4%
CCCCn1nnnc1SCC(=O)NC1CCCCC1,-1.0%,-22.4%,-0.7%,11.1%[46.1 µM],nt,-16.1%[46.1 µM],nt,17.5%
CC1CN(C(=O)CCc2ccccc2)C(C)CN1C(=O)CCc1ccccc1 (configuration not stated),-5.2%,2.0%,10.3%,-10.1%,9.7%,0.9%,1.9%,-29.0%
CCC(C)[C@H](NC(=O)NCc1ccc(S(N)(=O)=O)cc1)C(=O)OC (some centres not stated),6.5%,-18.6%,nt,3.7%[46.1 µM],nt,18.4%[46.1 µM],nt,-9.2%
Cc1nc(NC(=O)CSc2nncs2)c(Cl)cc1Cl,-0.1%,12.4%,-0.1%,nt,nt,nt,nt,-11.4%
CNC(=O)Nc1cccc(C(F)(F)F)c1,-81.9%,-13.4%,-111.5%,-0.3%,2.9%,10.7%,0.8%,12.5%
CC1(C)OC(=O)N(c2ccccc2)C12C=Cc1c(ccc3ccccc13)O2 (configuration not stated),-46.7%,23.9%,15.0%,-2.1%,?,-24.9%,-7.8%,-23.6%
COc1cc(NC(=O)Cc2cccs2)cc(OC)c1,-2.6%,-19.9%,1.5%,-9.6%,-11.4%,6.8%,1.7%,59.9%[activator]
COC(=O)c1cc(Br)c(=O)n(CCN2CCCC2)c1,3.8%,6.7%,15.4%,23.4%[46.1 µM],1.9%,0.5%,-5.9%,5.8%
O=C(NN=Cc1ccccc1Cl)c1cccc2ccccc12,nt,-8.7%,nt,2.1%,nt,13.2%[46.1 µM],nt,-19.3%
C=CCOc1ccc(/C=C\c2nc(O)c([N+](=O)[O-])c(=O)[nH]2)cc1OC,-2.2%,23.6%,1.5%,nt,nt,nt,nt,-11.2%
COc1ccc(C(=O)Nc2cc3c(cc2N2CCOCC2)n(C)c(=O)n3C)cc1OC,1.1%,2.4%,-2.2%,-10.8%[46.1 µM],nt,?,nt,-7.8%
N#CC1=C(SCC(=O)NCc2ccccc2)NC(=O)CC1c1ccco1 (configuration not stated),1.2%,-3.5%,-8.6%,2.9%,-3.3%,0.8%,0.6%,-6.8%
CCCc1nc(N)c(C#N)c(N)c1C#N,1.2%,1.8%,-3.0%,?,-3.9%,-1.2%,2.1%,1.0%
CCC(C(=O)Nc1cc(OC)ccc1OC)n1nc(-c2ccccc2)c2c(c1=O)CCCC2 (configuration not stated),nt,nt,nt,?,-0.6%,?,-5.2%,-11.6%
CCCCN(CC)C(=O)C1CCC(CNS(=O)(=O)c2cccc3nsnc23)CC1 (configuration not stated),3.4%,0.9%,5.1%,-19.7%&-19.7%[46.1 µM],-6.2%,-4.6%[46.1 µM],-1.6%,?

# The listing continues.
SMILES,SARS PLP yeast,RE007 growth inh,NS1 inh,Marburg entry inh,Cruzain noTriton,LASV entry inh,Cruzain inh Det,StopGo reporter
O=C(Cn1nc(CNc2ccc(Cl)cc2)[n+]2c1CCCCC2)c1ccc(Br)cc1,-28.1%,2.6%,10.5%,-1.2%,6.7%,13.6%,-3.7%,0.3%
O=C1CCCC2=C1C(c1ccccc1)CC(=O)N2c1ccc(F)cc1F (configuration not stated),-3.1%,-7.5%,nt,?,nt,-2.1%,nt,-10.3%
CCN(C(=O)CN1C(=O)NC(c2ccccc2)(c2ccccc2)C1=O)c1ccccc1,-4.2%,7.6%,12.0%,?,nt,?,nt,6.5%
COc1ncccc1-c1nnn(-c2ccc(C)cc2)n1,-1.1%,-9.0%,-1.1%,nt,nt,nt,nt,48.6%[activator]
COc1cc(C2C(C#N)=C(N)Oc3cc4c(cc32)OCO4)cc(OC)c1OC (configuration not stated),-0.4%,-1.5%,-4.1%,nt,nt,nt,nt,-15.5%
